TsaE inh: qHTS Assay for Inhibitors of YjeE. hit rate 0.05% among 71,000. Potency, µM. purified YjeE, fluorescence polarisation of a bound ADP probe. tRNA threonylcarbamoyladenosine biosynthesis protein TsaE (Escherichia coli (strain …; active = well fitted falling curve; inconclusive = weaker or top-dose-only fall, or a rising curve; inactive = flat or poorly fitted curve;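 note: top concentration of the series not given in the record; excess ADP was the control for the full effect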
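Fluorescence polarization of a BODIPY Texas Red–ADP probe (2 uM) bound to purified YjeE (10 uM) was read after 15 min room-temperature incubation with compounds. Loss of polarization marks inhibitors; ADP serves as titrated control.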
PK Bst: Pyruvate Kinase; partly purified Bacillus stearothermophilus pyruvate kinase, luminescence ATP production; ribose 5-phosphate activator present at AC10; AID 361, 2006; Potency, µM; hit rate 1.2% among 51,000; in the data active means potency below about 11 µM; inconclusive means mostly about 12 µM to 25 µM; inactive means weaker than that;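 the screen sought inhibitors and activators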;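 note: potency is the fitted concentration of half-maximal effect; scaled between full activation by ribose 5 phosphate and full inhibition by luteolin; about four in five hits inhibit and the cells do not say which; series up to 57 µM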
An asterisk follows results filed as active; i = inactive; x = not tested or not shown. An excerpt; count on the stated rates, not on these rows.

TsaE inh	PK Bst	Structure
i	x	Cc1cccc(Nc2cc(Cl)nc(SCC(=O)O)n2)c1C
i	>26	CCCCOc1ccc(CC(=O)NO)cc1
i	x	CCOC(=O)NNc1nncc2ccccc12
i	x	CC[C@H]1C(=O)OC[C@H]1Cc1cncn1C
x	>26	CC[C@]1(O)C[C@@H]2CN(CCc3c([nH]c4ccccc34)[C@@](C(=O)OC)(c3cc4c(cc3OC)N(C)[C@H]3[C@@](O)(C(=O)OC)[C@H](OC(C)=O)[C@]5(CC)C=CCN6CC[C@]43[C@@H]65)C2)C1
i	>26	CCn1cc(C(=O)O)c(=O)c2cc(F)c(N3CCNCC3)nc21
i	x	COc1ccc(/C=C\C(=O)Nc2ccccc2C(=O)O)cc1OC
x	>26	CN(C)CCOc1ccccc1Cc1ccccc1
x	>26	C[C@@H]1C[C@H]2[C@@H]3C[C@H](F)C4=CC(=O)C=C[C@]4(C)[C@@]3(F)[C@@H](O)C[C@]2(C)[C@@]1(O)C(=O)COC(=O)C(C)(C)C
i	x	COc1cc([C@H]2Oc3cc([C@H]4Oc5cc(O)cc(O)c5C(=O)[C@@H]4O)ccc3O[C@@H]2CO)ccc1O
i	x	CCCOC(=O)c1ccc(O)cc1
i	x	CC(=O)Nc1ccccc1
i	x	CCCCNC(=O)[C@@H]1Cc2ccccc2N1C(=O)[C@H](N)CC
i	x	COc1ccccc1OC[C@H](O)COC(N)=O
i	>26	Cn1c(=O)c2c(ncn2CCO)n(C)c1=O
i	x	CC(=O)Nc1ccc(O)cc1
i	x	CCC(=O)O[C@@]1(C(=O)SCF)[C@@H](C)C[C@H]2[C@@H]3C[C@@H](F)C4=CC(=O)C=C[C@@]4(C)[C@]3(F)[C@@H](O)C[C@]21C
i	x	COc1cc2nc(N3CCN(C(=O)[C@H]4COc5ccccc5O4)CC3)nc(N)c2cc1OC
i	x	CCCCCCc1ccc(O)cc1O
x	>26	Cc1cccc(C)c1NC(=O)C1CCCCN1C (centres undefined)
i	>26	CCCCC1C(=O)N(c2ccccc2)N(c2ccccc2)C1=O
i	x	NC(=NCc1ccccc1)NC(=O)c1nc(Cl)c(N)nc1N
i	x	CCCCCCCC/C=C\CCCCCCCC(=O)O
i	x	O=C(O)c1cc2ccccc2c(Cc2c(O)c(C(=O)O)cc3ccccc23)c1O
i	x	COc1cc([C@@H]2Oc3cc([C@H]4Oc5cc(O)cc(O)c5C(=O)[C@H]4O)ccc3O[C@H]2CO)ccc1O
i	x	NC(N)=NC(=O)Cc1c(Cl)cccc1Cl
i	x	CCCCCCCCCCCCCCCCCC(=O)O
i	x	CCCCCCCCCCCC(=O)O

Arranged by length of the SMILES (lowest first): some entries from above.
TsaE inh	PK Bst	Structure
i	x	CCCCCCCCCCCC(=O)O
i	x	CCCCCCc1ccc(O)cc1O
i	x	CCCOC(=O)c1ccc(O)cc1
i	x	CCCCCCCCCCCCCCCCCC(=O)O
i	x	CCOC(=O)NNc1nncc2ccccc12
x	>26	CN(C)CCOc1ccccc1Cc1ccccc1
i	x	NC(N)=NC(=O)Cc1c(Cl)cccc1Cl
i	x	Cc1cccc(Nc2cc(Cl)nc(SCC(=O)O)n2)c1C
i	>26	CCCCC1C(=O)N(c2ccccc2)N(c2ccccc2)C1=O
i	x	COc1ccc(/C=C\C(=O)Nc2ccccc2C(=O)O)cc1OC
i	x	O=C(O)c1cc2ccccc2c(Cc2c(O)c(C(=O)O)cc3ccccc23)c1O
i	x	COc1cc([C@@H]2Oc3cc([C@H]4Oc5cc(O)cc(O)c5C(=O)[C@H]4O)ccc3O[C@H]2CO)ccc1O
i	x	COc1cc([C@H]2Oc3cc([C@H]4Oc5cc(O)cc(O)c5C(=O)[C@@H]4O)ccc3O[C@@H]2CO)ccc1O
i	x	CCC(=O)O[C@@]1(C(=O)SCF)[C@@H](C)C[C@H]2[C@@H]3C[C@@H](F)C4=CC(=O)C=C[C@@]4(C)[C@]3(F)[C@@H](O)C[C@]21C
x	>26	C[C@@H]1C[C@H]2[C@@H]3C[C@H](F)C4=CC(=O)C=C[C@]4(C)[C@@]3(F)[C@@H](O)C[C@]2(C)[C@@]1(O)C(=O)COC(=O)C(C)(C)C

Two entries from above in a different format.
CCn1cc(C(=O)O)c(=O)c2cc(F)c(N3CCNCC3)nc21
  TsaE inh: i | PK Bst: >26

COc1ccc(/C=C\C(=O)Nc2ccccc2C(=O)O)cc1OC
  TsaE inh: i | PK Bst: x
